# CDC25B-CDK2 inh – human CDC25B-CDK2/CyclinA binding inhibition. P30305+P24941. HTRF CDC25B-CDK2/CyclinA binding, anti-His/anti-Flag; stronger effect = higher value. 94,000 tested, 0.72% active. AID 1259370. z-score (test concentration not listed);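 further: score is relative to mean and SD of negative controls; strong numbers were not always called active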
# HIV TAR-Tat – HIV-1 TAR-Tat binding disruption. HIV-1 TAR RNA, Tat peptide displacement FRET; stronger effect = higher value. z-score (test concentration not listed). 100,000 tested, 0.6% active;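 further: score is relative to mean and SD of negative controls; some compounds called inactive have numbers as strong as hits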
# The depositor's hits bear a star; · = not tested or not shown.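 How the source made its calls: active means z-score from 3 up in half or more of its runs; inactive means the rest.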
SMILES,CDC25B-CDK2 inh,HIV TAR-Tat
COc1ccc(-c2csc3nc(-c4ccc(F)cc4)oc(=O)c23)cc1OC,-1.5,1.5
CCCNC(=O)Cn1ncn2nc(-c3cccs3)cc2c1=O,-2.1,-0.08
CC(C)(C)OC(=O)NC1CCN(C(=O)Nc2cc(Cl)cc(Cl)c2)CC1,0.84,·
Cc1oc2ncnc(N3CCOCC3)c2c1C(=O)NC1CCCC1,·,0.78
COc1ccc(CN2CNc3c(c(=O)n(C)c(=O)n3C)C2)cc1,0.83,0.93
CC(C)c1nnc(NCC(C)(C)C)s1,0.41,·
COc1cccc(-c2nn3c(C)nnc3s2)c1,-1.2,0
O=C(CSc1nc2c(cnn2-c2ccc(F)cc2)c(=O)[nH]1)N1CCCCC1,-0.08,·
Cc1[nH]cnc1CSCCNC(=O)Nc1cccc(Cl)c1,4.5,-2
CC1CCCCN1S(=O)(=O)c1ccc2c(c1)oc(=O)n2CC(=O)NC1CCCC1 (configuration not stated),·,-0.08
CN1C(=O)c2ccccc2Sc2cc(NC(=O)C3CC3)ccc21,·,1.1
O=C(NCc1ccco1)Nc1cccs1,-1.1,-1.5
COc1cc(C(=O)NNS(=O)(=O)c2ccc(Cl)cc2)c(-n2c(C)ccc2C)cc1OC,-2.8,·
c1ccc(-c2nc3c4ccccc4nc(NCCCN4CCCCC4)n3n2)cc1,-1.5,-2
Cc1cc(C)cc(Nc2cc(C)nc(-n3cc([N+](=O)[O-])cn3)n2)c1,·,1.7
Cc1cccc(-c2nc3scc(CCNS(=O)(=O)c4c(C)noc4C)n3n2)c1,·,-1.5
O=C1CN(Cc2cccc(Cl)c2)S(=O)(=O)c2ccccc2N1Cc1ccc(Cl)cc1,·,0.77
CC(C)c1nnc(NC(=O)c2nn(-c3ccccc3)ccc2=O)s1,-0.5,-0.04
O=C(c1cccs1)N1CCN(Cc2cc(=O)n3nc(-c4ccccc4)sc3n2)CC1,·,1.2
O=C(Nc1sc2c(c1C(=O)NCc1ccco1)CCC2)c1cc(-c2cccs2)on1,0.63,1.1

# Nothing new here: an excerpt of the list.
SMILES,CDC25B-CDK2 inh,HIV TAR-Tat
COc1ccc(-c2csc3nc(-c4ccc(F)cc4)oc(=O)c23)cc1OC,-1.5,1.5
CCCNC(=O)Cn1ncn2nc(-c3cccs3)cc2c1=O,-2.1,-0.08
CC(C)(C)OC(=O)NC1CCN(C(=O)Nc2cc(Cl)cc(Cl)c2)CC1,0.84,·
Cc1oc2ncnc(N3CCOCC3)c2c1C(=O)NC1CCCC1,·,0.78
COc1ccc(CN2CNc3c(c(=O)n(C)c(=O)n3C)C2)cc1,0.83,0.93
CC(C)c1nnc(NCC(C)(C)C)s1,0.41,·
COc1cccc(-c2nn3c(C)nnc3s2)c1,-1.2,0
O=C(CSc1nc2c(cnn2-c2ccc(F)cc2)c(=O)[nH]1)N1CCCCC1,-0.08,·
Cc1[nH]cnc1CSCCNC(=O)Nc1cccc(Cl)c1,4.5,-2
CC1CCCCN1S(=O)(=O)c1ccc2c(c1)oc(=O)n2CC(=O)NC1CCCC1 (configuration not stated),·,-0.08
CN1C(=O)c2ccccc2Sc2cc(NC(=O)C3CC3)ccc21,·,1.1
O=C(NCc1ccco1)Nc1cccs1,-1.1,-1.5
COc1cc(C(=O)NNS(=O)(=O)c2ccc(Cl)cc2)c(-n2c(C)ccc2C)cc1OC,-2.8,·
c1ccc(-c2nc3c4ccccc4nc(NCCCN4CCCCC4)n3n2)cc1,-1.5,-2
Cc1cc(C)cc(Nc2cc(C)nc(-n3cc([N+](=O)[O-])cn3)n2)c1,·,1.7
Cc1cccc(-c2nc3scc(CCNS(=O)(=O)c4c(C)noc4C)n3n2)c1,·,-1.5
O=C1CN(Cc2cccc(Cl)c2)S(=O)(=O)c2ccccc2N1Cc1ccc(Cl)cc1,·,0.77
CC(C)c1nnc(NC(=O)c2nn(-c3ccccc3)ccc2=O)s1,-0.5,-0.04
O=C(c1cccs1)N1CCN(Cc2cc(=O)n3nc(-c4ccccc4)sc3n2)CC1,·,1.2

# The list continues:
SMILES,CDC25B-CDK2 inh,HIV TAR-Tat
Cc1cc(N2CCN(C3CCCCC3)CC2)n2nc(-c3ccco3)nc2n1,·,-0.59
Cc1noc(C)c1CCNC(=O)C1CCCN(c2ncnc3c2nc2n3CCCCC2)C1 (configuration not stated),·,0.12
CC(=O)OC(Cc1ccccc1)NC(=O)CCCC(=O)NC(Cc1ccccc1)OC(C)=O (configuration not stated),-1.9,·
CC1CCN(C(=O)C2CCN(c3nnc(-n4cccc4)s3)CC2)CC1,-1.4,0.35
CCCCc1c(O)nc(SCC(=O)NCC2CCCO2)[nH]c1=O (configuration not stated),-0.7,1.1
O=S(=O)(NCc1nc2ccccc2[nH]1)c1ccccc1,0.25,0.37
Cc1csc(-c2sc3ccccc3c2O)n1,-0.33,·
COc1ccccc1NC1OC(=O)c2ccccc21 (configuration not stated),-0.53,-0.99
CCS(=O)(=O)Nc1ccc(C2=NN(S(=O)(=O)CC)C(c3cccc(F)c3)C2)cc1 (configuration not stated),-1.5,·
O=S(c1ccc(Cl)cc1)c1ccc(-c2ccccn2)s1 (configuration not stated),-0.8,·
CN(CCCNc1c(-c2ccccc2)c(=O)c1=O)Cc1ccccc1,·,1.2
CC(C)Cn1cc(NC(=O)N(C)c2ccccc2F)c2ccccc2c1=O,·,-0.86
CC(C)c1ccc(C2C3=C(CC(C)(C)CC3=O)Nc3cc4c(cc32)OCCO4)cc1 (configuration not stated),-2.5,·
O=C1CCCC2=C1C(c1cccs1)N(Cc1ccccc1F)c1ccccc1N2 (configuration not stated),·,1.5
CSc1oc(-c2ccc(C)cc2)nc1S(=O)(=O)c1ccccc1,-2.6,0.57
CCOc1ccc(N2C(=O)Nc3ccccc3S2(=O)=O)cc1,·,1.6
Cn1c(=O)c2c(-c3ccccc3Cl)n(-c3ccccc3)cc2n(C)c1=O,-0.76,-0.82
COc1ccc(-c2n[nH]c(=S)o2)cc1OC,-0.01,·
Cc1ccc(C2Nn3c(nnc3-c3ccccc3)SC2C(=O)NCC2CCCO2)cc1 (configuration not stated),-0.95,-0.23
CCN(CC)CCCC(C)NC(=O)C(=O)c1c[nH]c2ccccc12 (configuration not stated),-1.7,·
O=C(CSc1nccn1Cc1ccco1)NC1CCCCC1,·,1.4
Cc1cc(C)c2c(-n3cccc3)nn(CCCC(=O)NCCC3=CCCCC3)c2n1,·,-0.06
O=C(CSc1nc2ncccc2[nH]1)Nc1cc(F)ccc1F,-1.4,2.5
CC(C)Nc1nc2c(S(=O)(=O)c3ccccc3)nnn2c2ccsc12,·,0.38
Clc1ccc(C2=NN3C(C2)c2ccccc2OC3c2ccncc2)cc1 (configuration not stated),-1.2,0.8
CCOC(=O)c1cc2c(Cl)ccc3c2n1CC(CC)O3 (configuration not stated),-0.24,0.86
CCc1nnc(NC(=O)CSc2nnc(Cn3c(=O)sc4ccccc43)n2C)s1,-0.04,0.99
O=C(/C=C/c1ccccc1)NC(=S)Nc1ccc(C(F)(F)F)cc1,-0.89,·
O=S(=O)(c1ccccc1)n1nc(-c2ccco2)nc1NCc1cccc(Br)c1,-0.95,1.7
Cc1cc(NC(=O)CSc2nnc(Cc3cccn3C)n2-c2ccc(Cl)cc2)no1,-0.51,0.75
Nc1nc(N)n(-c2ccccc2)c(=Nc2ccccc2)n1,0.46,·
Cc1ccc(C2C=C(c3ccccc3)Nc3nc(NS(C)(=O)=O)nn32)cc1 (configuration not stated),0.52,·
Cc1nn(-c2nncc(-c3ccccc3)n2)c2c1C(c1ccc(OC(C)C)cc1)CC(=O)N2 (configuration not stated),2,1.1
CSc1ccc(C(=O)c2[nH]c(=O)[nH]c2C)cc1,-1.1,·
Cc1ccc(C2CCCCC2)c(O)c1,-0.66,0.65
CC1=C(C)CC(C(=O)c2cc(C)ccc2C)C(C(=O)O)C1 (configuration not stated),-1.3,0.96
COC(=O)c1cc2c(-c3ccccc3)ccnc2[nH]1,-0.25,1.2
CC(=O)N1c2ccc(S(=O)(=O)Nc3ccc(Br)c(C)c3)cc2CC1C (configuration not stated),·,-0.22
Cn1c(=O)c2nc(-c3ccc(Br)cc3)oc2c2ccccc21,-0.18,·
CN1C(=O)C(C)(C)c2cc(S(=O)(=O)N(Cc3cccs3)C3CCCC3)ccc21,·,-0.61
COC(=O)c1cc2sccc2n1CC(=O)Nc1ccc(N(C)C)cc1,-0.67,-0.59
CC(C)(C)N(Cc1ccccc1)C(=O)Cn1c(=O)oc2ccccc21,·,0.31
CC1=C(C(=O)NC2CCCc3ccccc32)C2(CCC(C)CC2)OC1=O (configuration not stated),1.4,0.92
CCN1C(=O)C2(c3ccccc31)c1c(oc3ccccc3c1=O)C(=O)N2CCCOC(C)C (configuration not stated),1,0.9
O=C1c2ccccc2-c2nn(-c3ccccc3)c(=O)c3ccc(Cl)c1c23,0.18,-0.36
Cc1cc2c(cc3c(SCc4nc(-c5ccccc5Cl)oc4C)nncn32)o1,·,-1.4
COc1oc(-c2cccc(C)c2)nc1C(F)(F)F,-1.6,-3.3
Cc1nc2ccccn2c(=O)c1NC(=O)c1ccc(F)cc1,·,0.51
Cc1ncc(-c2ccc(S(=O)(=O)N3CCCc4ccccc43)cc2)o1,·,0.33
CC(C)c1ccc(Nc2nc3cccnc3s2)cc1,4.5,·

# The listing continues.
SMILES,CDC25B-CDK2 inh,HIV TAR-Tat
Cc1ccc(OCC(=O)OCc2cc(=O)n3nc(C4CC4)sc3n2)cc1C,·,-2.1
Cc1ccc(-c2nc(-c3cccnc3)no2)cc1,-1,0.04
COCC(=O)N1c2nc(C(C)C)nn2C2(CCCCC2)[C@@H]2CCCC[C@@H]21,-0.91,0.86
O=C(c1ccc(Br)cc1)N(Cc1ccco1)Cc1ccco1,0.97,0.94
Cc1ccc(C)c(Nc2ncnc3c2nc2n3CCCC2)c1,·,0.7
S=C(NNc1c(Cl)cncc1Cl)Nc1ccc(Cl)cc1Cl,-0.88,·
CC1CCC(C(C)C)C(OCC(O)CN2CCCCC2)C1 (configuration not stated),1.6,0.75
CCc1ccc(C(=O)CSc2ncn[nH]2)cc1,0.45,0.85
CC1c2cccn2CCN1C(=O)NC1CCCC1 (configuration not stated),·,-3.5
CC1CCc2c(cnc3c(C(=O)NC(C)C)cnn23)C1 (configuration not stated),·,-0.37
Cn1c(NC(=O)c2ccc(S(=O)(=O)N3CCCC3)cc2)cc(=O)n(C)c1=O,·,1.9
Fc1ccc(-c2nc3cnccn3c2Nc2ccc3c(c2)OCCO3)cc1,-2.1,-0.63
CC(C)c1cc(C(=O)N2CCc3ccccc3C2)no1,-2.6,-0.86
COc1ccc(OC)c(NC(=O)c2cc3c(s2)-c2ccccc2S(=O)(=O)C3)c1,-0.77,-0.08
Cc1cc(-c2ccc(S(=O)(=O)NCc3ccccn3)s2)on1,·,0.3
CCOC(=O)c1ccc(N2CCOCC2)c(N=Cc2cc(Cl)cc(Cl)c2O)c1,-1,·
Cn1nc(C(=O)NCc2cccs2)c2c1-c1ccsc1CC2,·,-0.43
COc1ccc(-n2ccnc(SCC(=O)Nc3ccc(OC)cc3OC)c2=O)cc1,·,1.1
O=C(c1ccccc1F)N1CCC(n2nc(-c3ccccc3)oc2=O)CC1,-0.7,2.2
COc1ccc(C2CC(=O)NC3=C2C(=O)CCC3)cc1Br (configuration not stated),-2.1,1.1
O=S1(=O)CCC(S(=O)(=O)NCc2ccccc2)C1 (configuration not stated),0.37,-1.1
O=C(Nc1ccc(Cl)cc1)Oc1ccc(C2SCCS2)cc1,8,·
Cc1noc(NS(=O)(=O)c2ccc(NC(=O)CSc3nc4ccccc4o3)cc2)c1C,-0.52,·
O=C(c1ccc2c(c1)nc1n2CCCC1)N1CCCCC1,·,0.7
C(=C\c1nn2c(-c3ccncc3)nnc2s1)/c1ccco1,-1,26*
O=C(Nc1ccc(Br)cc1F)C1CCCN(c2nnc(-n3cccc3)s2)C1 (configuration not stated),·,1
NC(=O)C1CCN(C(=O)NC2COc3ccccc3C2)CC1 (configuration not stated),·,0.4
CC(NC(=O)OC(C)(C)C)C(=O)NC(Cc1ccccc1)C(=O)O (configuration not stated),0.7,·
Cc1cc(C)cc(-n2nnc(-c3nc(-c4ccccc4F)no3)c2N)c1,·,-0.22
CCCCOC(=O)Nc1sc2c(c1C(=O)OC)CCC(C)C2 (configuration not stated),-0.51,1
O=C(Nc1ccc(Br)cc1)c1ccc([N+](=O)[O-])s1,-0.3,0.4
COCCCNC(=O)c1cccn1-c1nnc(N2CCCC2)s1,·,1.4
CCCn1cc(S(=O)(=O)c2ccccc2)c(=O)c2cc(OC)c(OC)cc21,-1.1,-0.85
COc1cc(C)ccc1S(=O)(=O)n1cnc2cc(C)c(C)cc21,-0.68,1.1
O=C(NCCCN1CCC(Cc2ccccc2)CC1)NC1COc2ccccc2C1 (configuration not stated),·,0.39
COc1cc(S(=O)(=O)N2CCN(c3ccccc3)CC2)ccc1Cl,-0.86,·
CCC(=O)N1N=C2C3CCN(CC3)C2C1c1cccs1 (configuration not stated),-0.21,2.6
O=C(c1c2oc(-c3ccc(Cl)cc3)ccc-2c2ccccc12)C(F)(F)F,-0.48,·
O=C(NC1CCN(c2ncccn2)CC1)C1CCN(c2cnccn2)CC1,0.7,1.5
O=C(O)c1cc(-c2ccccn2)nc2ccccc12,-0.75,·
Cc1cc(Nc2ccc3c(c2)OCCO3)n2nc(Cc3cccc(F)c3)nc2n1,·,1.4
Cc1ccc(CNc2ncnc3c2cnn3C)cc1,·,-0.51
CCc1ccc(-c2cc(C)no2)cc1S(=O)(=O)N1CCOc2ccccc21,·,0.84
COc1ccc(S(=O)(=O)NCCc2nnc3ccc(SCc4ccc(F)cc4)nn23)cc1,·,1.7
COC(=O)CSc1nnc(-c2ccc(N(C)C)cc2)o1,0.4,0.21
CC(C(=O)Nc1ccc(Cl)cc1)n1nnc2sc3c(c2c1=O)CCCC3 (configuration not stated),-2.8,-0.62
CCCN1C(=O)C(O)(CC(=O)c2ccc(OCC)cc2)c2cc(Br)ccc21 (configuration not stated),-0.9,0.34
O=c1c(N2CCCCC2)csc2ccc(Br)cc12,·,-0.27

# Screens from PubChem.
